Assay outcomes from PubChem.
Six1-Eya2 blk = inhibitors of human Six1/Eya2 interaction; AlphaScreen GST-Six1/His-Eya2 binding, biochemical; active compounds read low; control for the full effect not named in the record; activity change, % (no concentration beside the values); 360,000 tested, 0.56% active; in the data active = activity change below about -65%; inconclusive = about -30% to -65%; inactive = above about -30%; note: % is set by controls: 0 for no effect and ±100 for the full control effect
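Homogeneous AlphaScreen proximity assay pairing GST-Six1 with His-tagged Eya2 (added as 5X mix: 250 nM and 500 nM) in 50 mM Tris pH 8.0, 300 mM NaCl, 1 mM TCEP. Glutathione donor and nickel acceptor beads; 1 h, 37 °C, dark.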
PINK1 expr mod = PINK1 expression modulation | PINK1 immunofluorescence, high-content cytometry, 24 h | Potency, µM (highest dose often 76.6 µM), inactives show at the top dose activation (PINK1 increase), usual class: activators | 410,000 tested, 0.2% active; active = well fitted activation curve with a large enough effect; inconclusive = small, poorly fitted or top-dose-only effect; inactive = flat fitted curve, though single readings scatter; cell line not stated here;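 note: potency is the fitted concentration of half-maximal effect; % of control where 0% means no effect; nearly all actives have a fitted effect of over 65% in size; a mitochondrial uncoupler was the plate control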
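PINK1 protein level read as immunofluorescence by microplate cytometer in a fixed, stained stable cell line after 24 h exposure to five compound concentrations, with CCCP as control.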
D2 ag = agonists of human D2 dopamine receptor (beta-arrestin). DiscoveRx PathHunter D2 beta-arrestin, luminescence, 90 min; 100% = 57 uM dopamine signal. activation, % (concentration not given with the values). 360,000 tested, 0.084% active; in the data active = activation above about 40%; inconclusive = about 15% to 40%; inactive = below about 15%; note: compound concentration not given in the record; the text of the record calls up to 30% inactive
Target sequence (P14416 whole entry, looked up): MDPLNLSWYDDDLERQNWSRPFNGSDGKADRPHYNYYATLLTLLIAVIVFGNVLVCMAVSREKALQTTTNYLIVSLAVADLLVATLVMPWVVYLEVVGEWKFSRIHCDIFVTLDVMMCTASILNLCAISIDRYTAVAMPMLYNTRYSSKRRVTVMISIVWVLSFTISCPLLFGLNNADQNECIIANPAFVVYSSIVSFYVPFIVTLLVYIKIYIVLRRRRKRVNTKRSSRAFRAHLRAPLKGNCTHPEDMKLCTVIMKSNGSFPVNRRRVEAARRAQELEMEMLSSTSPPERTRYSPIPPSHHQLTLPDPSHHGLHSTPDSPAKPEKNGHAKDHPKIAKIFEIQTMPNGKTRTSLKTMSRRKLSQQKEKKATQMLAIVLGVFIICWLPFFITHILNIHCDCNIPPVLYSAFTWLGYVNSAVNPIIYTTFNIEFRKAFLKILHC
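DiscoveRx PathHunter D2 beta-arrestin cells (2,100/well) attached overnight, then compound-stimulated 90 min at 37 C in HBSS/10 mM HEPES/0.1% Tween-20 buffer; beta-galactosidase complementation read by luminescence after 1 h at ambient temperature. Dopamine 57 uM final (EC100) as control.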
TRPV1 potentiator = potentiators of human vanilloid receptor 1 (TRPV1) | Q8NER1 | TRPV1-expressing cells, Fluo-8 calcium influx, capsaicin EC20 potentiation; host cell line not named in the record; control for the full effect not named in the record | potentiation, % at 8.33 µM | 320,000 tested, 0.02% active | AID 540277; active means potentiation above 80%; inconclusive means 30% to 80%; inactive means below 30%; note: 0% is about no effect
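Cells expressing TRPV1 were dye-loaded with Fluo-8 and read kinetically: 10 s baseline, 3 min after compound (agonist portion), then 2 min after EC20 capsaicin (allosteric enhancer portion). Calcium-bound dye fluorescence at 480/520 nm.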
CtBP-E1A inh = CtBP/E1A binding inhibition; AlphaScreen GST-E1A/His-CtBP binding, 1536-well; active compounds read low; control for the full effect not named in the record; activity change, % (no concentration beside the values); 340,000 tested, 0.49% active; AID 651724; in the data active means activity change below about -65%; inconclusive means about -30% to -65%; inactive means above about -30%; note: % is set by controls: 0 for no effect and ±100 for the full control effect
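Homogeneous bead-based format: GST-tagged E1A captured on glutathione donor beads, His-tagged CtBP on nickel acceptor beads; compounds precede bead addition by 2 h at 37 °C.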
D2 potentiator = human D2 receptor positive allosteric modulation; potentiation, % (test concentration not listed); DiscoveRx D2 beta-arrestin cells, luminescence, 90 min; 100% = 57 uM dopamine signal; AID 624464; 360,000 tested, 0.23% active; active = potentiation of 50% or more; inconclusive = 30% to 50%; inactive = 30% or less;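 note: compound concentration not given in the record; tested on top of an EC20 dose of dopamine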
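D2 cells co-treated with compound plus 50 nM dopamine (EC20) for 90 min at 37 deg C to detect potentiation. Beta-arrestin recruitment was read as enzyme-fragment luminescence after 1 h at ambient temperature. Full response was set by 57 uM dopamine.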
Sfp inh = inhibitors of Bacillus subtilis Sfp phosphopantetheinyl transferase; Q9F4F7; Biochemical Sfp PPTase activity, qHTS; Potency, µM, inactives show max response, negative = inhibition, hits mostly inhibitors; 310,000 tested, 3.5% active; active = well fitted inhibition curve with a large enough effect; inconclusive = small, poorly fitted or top-dose-only effect, or another doubt; inactive = no such curve, though single readings can be large or run the other way;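 note: the enzyme is Sfp with the accession as filed and its product quenches rhodamine fluorescence; potency is the fitted concentration of half-maximal effect; 0% = enzyme reaction without inhibitor and -100% = no enzyme wells; top concentration of the series not given in the record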
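Compounds were incubated with enzyme (final 15 nM) for 15 min at room temperature before substrate addition started the reaction. Fluorescence at 525 nm excitation, 598 nm emission was recorded immediately and after 30 minutes.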
* marks the source's active call; other numbers are inactive results; ? = inconclusive; nt = not tested or not shown; & = joins results of further samples; [ ] = another dose, or the depositor's remark.

Start of the data: the first 3 entries, to show the layout:
Value order: TRPV1 potentiator	D2 potentiator	D2 ag	Sfp inh	CtBP-E1A inh	PINK1 expr mod	Six1-Eya2 blk
- CSc1ccccc1NC(=O)COC(=O)Cn1cc(C(F)(F)F)ccc1=O
 : 25	5	0.4	nt	nt	0.2%	1
- COC(=O)N/N=C/c1cn(CCOc2ccc(OC)cc2)c2ccccc12
 : 6	6	8.7	-1%	-9	-2.2%	-11
- Cc1cc(N2CCOCC2)n2nc(C(F)(F)F)c(-c3ccccc3)c2n1
 : 25	-4	1.2	19%	7	6.6%	5

The whole of this part, from the start:
Value order: TRPV1 potentiator	D2 potentiator	D2 ag	Sfp inh	CtBP-E1A inh	PINK1 expr mod	Six1-Eya2 blk
- CSc1ccccc1NC(=O)COC(=O)Cn1cc(C(F)(F)F)ccc1=O
 : 25	5	0.4	nt	nt	0.2%	1
- COC(=O)N/N=C/c1cn(CCOc2ccc(OC)cc2)c2ccccc12
 : 6	6	8.7	-1%	-9	-2.2%	-11
- Cc1cc(N2CCOCC2)n2nc(C(F)(F)F)c(-c3ccccc3)c2n1
 : 25	-4	1.2	19%	7	6.6%	5
- Cc1ccc(NC(=O)CCc2nc3ccccc3[nH]2)cc1C
 : -11	-14	-0.5	11%	0	1.0%	3
- FC(F)(F)c1nnc2c(Sc3ccccc3)nc3ccc(Cl)cc3n12
 : nt	2	1.4	7%	5	-5.5%	-2
- Cc1ccc(-n2ccc(=O)c(C(=O)Nc3ccc(S(=O)(=O)Nc4nccs4)cc3)n2)cc1
 : 4	-12	2.4	18%	-8	0.3%	-10
- C(#Cc1ccc(C#CCN2CCCC2)cc1)CN1CCCC1
 : ?	-11	-7.6	11%	5	0.3%	-8
- C/C(CC(=O)Nc1c(Cl)cccc1C(F)(F)F)=N\NC(=O)c1cnccn1
 : nt	-2	0.1	nt	24	3.3%	11
- CC(NC(=O)c1cccc(S(=O)(=O)N(C)C)c1)C1CC2CCC1C2 (stereo not drawn)
 : -1	-8	-2.3	-3%	-5	-0.3%	-5
- CCNC(=S)NNC(=O)c1cc(-c2cccnc2)nc2ccccc12
 : 0	-17	-9.2	10%	-22	0.1%	-9
- COCCn1nnnc1C(c1ccc2ncccc2c1)N1CCc2ccccc21 (stereo not drawn)
 : -8	-11	-0.9	12%	3	nt	-9
- Cc1cccc(C)c1NC(=O)NC1(C(=O)NCCN2CCOCC2)CCCCC1
 : 18	4	-5.5	3%	0	1.9%	3
- O=[N+]([O-])c1ccc(N/N=C/c2sc(N3CCOCC3)nc2-c2ccccc2)c(S(=O)(=O)Nc2ccc(Cl)cc2)c1
 : 3	-2	-3.9&-1.7	-14%	2	?	-3
- COCCn1c(=O)[nH]c2cc(C(=O)NCCN3CCN(c4ccc(OC)cc4)CC3)ccc2c1=O
 : -28	-9	-2.3	-12%	4	1.4%	17
- Cc1noc(NS(=O)(=O)c2ccc(NC(=O)c3cc(S(=O)(=O)Nc4ccc(F)cc4)ccc3Cl)cc2)c1C
 : nt	-18	2.3	nt	-24	-0.3%	-9
- O=C(O)C1CC=CCC1C(=O)NCCCCc1ccccc1 (stereo not drawn)
 : -1	-1	1.2	6%	1	2.2%	5
- COc1cc(O)c(C(CC(=O)N2CCOCC2)c2cc(OC)c(OC)c(OC)c2)c(OC)c1 (stereo not drawn)
 : 29	1	4.0	18%&29%	7	-1.2%	3
- COc1ccc(N2C(=O)/C(=C\c3ccco3)N=C2SCC(=O)NC(C)C)cc1Cl
 : -12	-6	-1.4	-22%	5	0.3%	2
- CC(Sc1nn(-c2ccc(F)cc2)c(=S)s1)C(=O)c1c(N)n(C)c(=O)n(C)c1=O (stereo not drawn)
 : -11	11	1.4	nt	-18	-0.9%	-11
- CCCNS(=O)(=O)c1ccc(CCC(=O)N2CCCCC2)cc1
 : 13	12	-0.8	21%	8	-0.7%	7
- CCC(=O)O/N=C(\N)c1ccc(Oc2cc(C)c(Cl)c(C)c2)c([N+](=O)[O-])c1
 : -7	-3	-2.9	-20%	-6	2.0%	4
- CCc1ccc(N2CC(C(=O)OCC(=O)Nc3ccccc3C)CC2=O)cc1 (stereo not drawn)
 : -6	-2	-0.2	nt	5	-1.2%	-3
- COc1ccc(-n2ccc(=O)c(C(=O)Nc3ccc(S(=O)(=O)Nc4nccs4)cc3)n2)cc1
 : -8	-3	0.7	-14%	0	5.7%	16
- CCOC(=O)C(C)(C)N(Cc1ccc(C)cc1)S(=O)(=O)c1ccc(Cl)c([N+](=O)[O-])c1
 : 3	2	2.5	-4%	-8	-2.6%	-9
- Cc1nn(C)c(C)c1/C=C/C(=O)c1ccccc1
 : -12	-4	-1.7	12%	-5	-0.8%[38.3 µM]	2
- O=C(CNC(=O)c1cccc(F)c1)N/N=C/c1cc(Br)ccc1OC(=O)/C=C/c1ccco1
 : 10	-2	-5.7	6%	-88*	-1.1%	-88*
- CN1CCN(c2ccc(NC(=O)COc3ccc(Cl)cc3Cl)cc2)CC1
 : 8	-10	-1.7	2%	-4	-3.5%[38.3 µM]	-5
- CCN(CC(=O)Nc1cccc(OC)c1)C(=O)c1ccc(C)s1
 : ?	-2	-3.1	-1%	6	-0.4%	-3
- COc1ccc(NC(=O)COc2ccccc2)cc1NC(=O)c1ccco1
 : 29	-26	-3.6	5%	-3	1.3%	-24
- Cc1ccc(C(=O)CCC(=O)OCC(=O)Nc2cc(S(=O)(=O)N(C)C)ccc2C)cc1
 : nt	-28	-0.1	nt	1	-0.6%	-4
- N#CCCn1cc(/C=N/O)c(-c2ccc(F)cc2)n1
 : 8	-9	3.2	12%	7	0.4%	0
- O=C(Nc1nnc([C@H]2C[C@H](O)[C@@H](CO)O2)s1)Nc1cccc2c1CCCC2
 : nt	5	-3.3	nt	0	1.5%	27
- CCCCCc1c(-c2ccccc2F)ncn1CCc1ccccc1OC
 : nt	nt	nt	nt	-1	-1.1%	-13
- O=C(Nc1ccccc1NC(=O)c1ccccc1F)c1ccccc1F
 : -33	-6	-0.5	23%	3	1.2%	2
- CC(C)N(C(=O)COC(=O)c1cccc(S(=O)(=O)N2CC3(C)CC2CC(C)(C)C3)c1)C(C)C (stereo not drawn)
 : 16	-29	-4.3	nt	7	2.7%	-2
- Cc1ccc(N2CCN(C(=S)c3ccc(-c4cccc([N+](=O)[O-])c4)o3)CC2)cc1
 : -1	-6	-7.5	14µM*	nt	0.7%	-19
- CCC1(c2ccccc2)NC(=O)N(CC(=O)NC2CCCC2)C1=O (stereo not drawn)
 : -12	-1	-0.6	nt	1	-0.2%	5
- COc1ccccc1CC(=O)N(Cc1ccccc1)c1cccc(C)c1
 : 0	-15	-5.8	-1%	-8	0.9%	-4
- Cc1cccc2cc3c(N)c(C(=O)N4CCc5ccccc54)sc3nc12
 : ?	-3	-4.5	1%	0	9.2%	14
- O=C(CSc1nc2ccc(Nc3nc(N4CCOCC4)nc(N4CCOCC4)n3)cc2s1)Nc1ccccc1Cl
 : 2	-5	-0.3	?	5	6.1%	3
- CCOC(=O)N1CCN(C(=O)c2ccc(Cl)c(S(=O)(=O)N3CCOCC3)c2)CC1
 : -2	8	7.8	20%	1	1.9%	0
- COc1ccc(S(=O)(=O)NCc2csc(-c3cccnc3)n2)cc1
 : ?	0	0.5	24%	-2	-0.5%	-2
- Nc1nnc(SCC(=O)N2CCN(c3ccccc3)CC2)n1-c1ccccc1
 : -6	3	-0.3	7%	-13	-3.0%	4
- CCCC(=O)Nc1nnc(SCC(=O)N2CCN(c3ccccc3)CC2)s1
 : 16	11	-2.4	-12%	-8	1.7%	6
- O=C(Nc1ccccc1F)C1CCN(C(=O)Cc2ccccc2)CC1
 : -4	2	-0.6	1%	-3	-1.1%	3
- N#Cc1ccc(C23CC4(C2)[C@H](CN(CC2CCCCC2)[C@@H]4c2ccccc2)C3c2ccccc2)cc1 (stereo partly drawn)
 : -17	-15	2.7	10%&4%	nt	10%	-7
- CCOCCCN(C(=O)c1snc(C(N)=O)c1N)C(C(=O)NC1CCCC1)c1ccc(OC)cc1 (stereo not drawn)
 : 10	-4	-2.4	8%	2	1.5%	2
- CCc1ccccc1NC(=O)N1CCc2ccccc2C1
 : -8	-7	-2.8	10%	4	0.4%	1
- NC(Cc1ccc(C(F)(F)F)cc1)c1csc(NC(=O)Nc2ccccc2Cl)n1 (stereo not drawn)
 : nt	2	5.5	nt	-3	-1.2%	2
- O=C(NCc1cccnc1)C(=O)NCC(c1ccco1)N1CCN(c2ccc(F)cc2)CC1 (stereo not drawn)
 : 2	3	0.7	9%	-15	0.9%	0
- CC(=O)Nc1c(I)c(C(=O)N[C@H]2C(O)O[C@H](CO)[C@@H](O)[C@@H]2O)c(I)c(N(C)C(C)=O)c1I (stereo partly drawn)
 : 8	-4	-9.3	nt	6	0.9%	4
- Cc1nn2c(c1-c1ccc(Cl)cc1)N=C(c1ccco1)CC2c1ccccc1 (stereo not drawn)
 : 3	2	2.5	?	-17	3.5%[38.3 µM]	-12
- CC(C)(C)c1ccc(Oc2ncccc2NC(=O)c2cccs2)cc1
 : -3	-13	-3.5	2%	7	4.4%	0
- COc1cc(C2NC(=O)N(C)C3=C2C(=O)CCC3)cc(OC)c1OC (stereo not drawn)
 : 1	-6	0.4	6%	12	-2.8%[38.3 µM]	-2
- COc1ccccc1NC(=O)c1cc[n+](C)cc1
 : 7	-31	-4.4	23%	nt	0.7%	2
- CCc1nn(CCCC(=O)N2CCN(c3ccc(OC)cc3)CC2)c(=O)c2cc3occc3n12
 : -4	-5	2.2	8%	1	-1.3%&-1.0%	0
- COc1cc(OC)cc(C(=O)N[C@H](C(=O)Nc2nc3ccccc3[nH]2)C(C)C)c1
 : ?	-14	-4.7	26%	-2	-0.4%	2
- COc1ccc(-n2nc(C(=O)NCc3cc(OC)ccc3OC)c3c4ccccc4n(C)c3c2=O)cc1
 : -2	2	2.5	11%	12	7.8%	-1
- O=C(CN(C(=O)c1csnn1)c1cccc(C(F)(F)F)c1)NCc1ccc(F)cc1
 : -6	-5	-0.1	4%	5	-1.9%	-3
- COc1ccc(-c2nsc3c(N4CCN(C(=O)c5ccco5)CC4)ncnc23)cc1
 : 3	2	0.7	-27%	5	-3.1%	-2
- O=C(Cn1nnc2ccccc21)N/N=C/c1ccco1
 : 2	-3	3.1	0%	1	-2.3%	-8
- CN(C)c1ccc(/C=C/c2nc3ccccc3c(=O)[nH]2)cc1
 : -5	-11	-5.3	10%	nt	21%	9

Random draw from the library; overall some 3.7% were active at least once.
